Source: PubChem BioAssay
Cruzain noTriton: cruzain (T. cruzi) inhibition without detergent. P25779. Potency, µM, inactives show max response, negative = inhibition, usual class: inhibitors. actives 2.3% (n = 200,000). purified cruzain, Z-FR-AMC fluorescence, no detergent. AID 1476;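 note: plate controls were enzyme without inhibitor for no effect and buffer without enzyme for full effect; nearly all actives have a fitted effect of over 40% in size; top concentration of the series not given in the record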
Target sequence (P25779 123-467 limits assumed): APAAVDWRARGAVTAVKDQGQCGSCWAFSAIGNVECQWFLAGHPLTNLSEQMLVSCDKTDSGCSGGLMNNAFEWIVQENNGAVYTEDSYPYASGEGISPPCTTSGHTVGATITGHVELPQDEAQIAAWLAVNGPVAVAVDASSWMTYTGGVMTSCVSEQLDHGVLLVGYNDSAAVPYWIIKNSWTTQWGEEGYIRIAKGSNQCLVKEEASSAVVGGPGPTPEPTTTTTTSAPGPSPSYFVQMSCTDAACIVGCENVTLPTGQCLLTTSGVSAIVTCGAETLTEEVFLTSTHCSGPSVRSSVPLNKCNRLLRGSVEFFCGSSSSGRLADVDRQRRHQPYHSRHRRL
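Detergent-free condition (0.00005% Triton X-100) in acetate buffer pH 5.5 with DTT. 1.5 nM enzyme and compound were pre-mixed 15 min, then 2 uM Z-FR-AMC substrate added; reaction progress from fluorescence change between first and third reads (60 s).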
Cruzain inh Det: cruzain (T. cruzi) inhibition with detergent; P25779; purified cruzain, Z-FR-AMC fluorescence, 0.01% Triton; Potency, µM, for inactives: max response, negative = inhibition, actives largely listed as inhibitors; actives 0.43% (n = 200,000);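 note: plate controls were neutral wells for no effect and buffer without enzyme for full effect; nearly all actives have a fitted effect of over 40% in size; top concentration of the series not given in the record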
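Purified cruzain (1.5 nM final) was preincubated with compounds for 15 min at room temperature in 100 mM sodium acetate pH 5.5, 5 mM DTT, 0.01% Triton X-100. Reaction started with 2 uM Z-FR-AMC; AMC fluorescence change over 60 s gave activity.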
2A StopGo: lowers the luciferase signal of an FMDV 2A StopGo reporter | AID 1159524 | Potency, µM (highest dose often 57.9 µM), inactives show top-dose signal change, negative = less light | actives 1.2% (n = 410,000) | human cells with a luciferase reporter of 2A StopGo recoding; control for the full effect not named in the record; active = well fitted falling curve with a large enough effect; inconclusive = small, poorly fitted or top-dose-only effect; inactive = no such curve, though single readings can be large or run the other way; tested in HEK293T cells; note: % is set by controls: 0 for no effect and ±100 for the full control effect; nearly all actives have a fitted effect of over 45% in size; luciferase light after 4 h
SARS PLP yeast: blocks SARS-CoV papain-like protease in a yeast assay; actives 0.19% (n = 330,000); Potency, µM (doses to about 32.9 µM), without a hit: at the highest dose activity, positive = growth rescue; AID 485353; S. cerevisiae expressing SARS-CoV PLpro, growth rescue; control for the full effect not named in the record; active means well fitted rising curve with a large enough effect; inconclusive means small, poorly fitted or top-dose-only effect; inactive means no such curve, though single readings can be large or run the other way; note: 0% is about no effect; nearly all actives have a fitted effect of over 55% in size; growth read by luminescence after 48 h
LASV entry inh: blocks Lassa virus binding to or entry into cells. Lassa virus pseudotype entry inhibition, cell reporter; control for the full effect not named in the record. Potency, µM (titrated, usually from 37.9 µM), for inactives: at the top dose activity change, negative = inhibition, actives largely listed as inhibitors. actives 1.2% (n = 300,000). AID 540256; active means well fitted inhibition curve with a large enough effect; inconclusive means small, poorly fitted or top-dose-only effect, or effect the other way; inactive means flat fitted curve, though single readings scatter; tested in HEK293 cells; note: % is set by controls: 0 for no effect and ±100 for the full control effect; nearly all actives have a fitted effect of over 50% in size; luciferase read-out
MARV entry inh: inhibitors of Marburg virus binding or cell entry. Marburg virus pseudotyped entry inhibition, cell reporter; control for the full effect not named in the record; about a third of the inactives were read at about 46 µM. Potency, µM (series often up to 37.8 µM), inactives show top-dose activity change, negative = inhibition, actives largely listed as inhibitors. actives 1.8% (n = 300,000); active = well fitted inhibition curve with a large enough effect; inconclusive = small, poorly fitted or top-dose-only effect, or effect the other way; inactive = flat fitted curve, though single readings scatter; tested in HEK293 cells; about a fifth of its hits are not listed in these tables; note: % is set by controls: 0 for no effect and ±100 for the full control effect; luciferase read-out
RE007 growth inh: less growth of the S. pombe RE007 Vpr strain. S. pombe RE007 Vpr strain, BacTiter-Glo ATP luminescence, 24 h; control for the full effect not named in the record. Potency, µM (titrated, usually from 92.2 µM), inactives show at the highest dose activity change, negative = less growth. actives 0.21% (n = 360,000). AID 651644; active = well fitted falling curve with a large enough effect; inconclusive = small, poorly fitted or top-dose-only effect; inactive = no such curve, though single readings can be large or run the other way;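 note: % is set by controls: 0 for no effect and ±100 for the full control effect; nearly all actives have a fitted effect of over 50% in size; the assay follows cell death caused by Vpr and the record does not say whether a fall means rescue or toxicity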
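Fission yeast RE007 carrying one integrated HIV-1 vpr copy, seeded at OD 0.01 in PMG+AL medium with 23 nL pinned compound. Grown 24 h at 30 degrees; viability read by BacTiter-Glo luminescence after 5 min.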
NS1 function inh: blocks influenza NS1 protein function | AID 2326 | Potency, µM (series often up to 46.1 µM), inactives show at the top dose activity, positive = more growth | actives 0.4% (n = 270,000) | S. cerevisiae slowed by influenza A NS1, growth recovery by OD600; active means well fitted rising curve with a large enough effect; inconclusive means small, poorly fitted or top-dose-only effect; inactive means no such curve, though single readings can be large or run the other way; note: nearly all actives have a fitted effect of over 50% in size
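S. cerevisiae expressing influenza A NS1, grown in glucose, washed, then diluted 1:100 into pH 6.0 -URA galactose medium with 23 nl compound. Growth recovery read as OD600; NS1-free strain serves as control.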
* marks the source's active call; other numbers are inactive results; ? = inconclusive; . = no result given; & = joins results of further samples; [ ] = remark or other dose. Unless noted, calls come from the whole dose curve; as a rule, active = well fitted curve in the direction sought with a large enough effect; inconclusive = small, poorly fitted or top-dose-only effect, or another doubt; inactive = no such curve, though single readings can be large; an effect the other way counts as inactive or inconclusive. Potency is the fitted concentration of half-maximal effect.

SMILES	Cruzain noTriton	Cruzain inh Det	2A StopGo	SARS PLP yeast	LASV entry inh	MARV entry inh	RE007 growth inh	NS1 function inh
O=C(O)CCc1ccc(-c2cccs2)n1NC(=O)c1ccco1	-6%	-1.1%	-22%	2%	-6%	12%[46.1 µM]	7%	7%
COc1cc(NC(=O)c2ccccc2OCc2ccccc2)cc(OC)c1OC	.	.	?	-12%	.	.	-25%	-76%
CN1CCN(CCCNC(=O)c2ccc3c(=O)n(CCc4ccccc4)c(=O)[nH]c3c2)CC1	.	.	12%	0%	0%	?	28%	-8%
N#CC12CCCCC1CC1CCCCC1(C#N)N2Cc1ccccn1 (stereo not drawn)	-3%	1.3%	-12%	5%	-1%	15%	6%	-9%
COCCCN1C(=O)c2ccc(C(=O)OCC(=O)NCc3cccc(OC)c3)cc2C1=O	.	.	-4%	3%	10%	?	-1%	.
Fc1cccc(F)c1-c1nc(-c2ccncc2)no1	-7%	0.6%	50%&36%[activator]	0%	-3%[46.1 µM]	.	?	-3%
NNC(=O)c1cc2sccc2s1	.	.	-3%	-3%	-23%[46.1 µM]	?	10%	2%
CCOc1ccc(S(=O)(=O)N(C(=O)c2ccco2)c2cc3sc(=O)oc3c3ccccc23)cc1	?	-3.4%	0%	-10%	-18%	3%	-5%	11%
CCC(C)(C)n1nnnc1C(c1cc2cccc(C)c2[nH]c1=O)N1CCN(C(=O)c2ccco2)CC1 (stereo not drawn)	?	-7.2%	-14%	8%	3%	0%&-28%	-14%	-3%
CC1(C)CC(=O)C(C=NCC2CCN(C(=S)Nc3ccccc3)CC2)=C(O)C1	.	.	-5%	0%	0%	5%[46.1 µM]	-10%	-1%
CCCCCCCn1ccc(=N)cc1	5%	12%	?	-3%	?	?	-26%	-10%
C=C1[C@@H](C)[C@H]2[C@H](Cc3ccccc3)NC(=O)[C@]23OC(=O)/C=C/[C@H](O)CCC[C@@H](C)C/C=C/[C@H]3[C@@H]1O	.	.	?	0%	.	.	28%	-17%
COc1ccccc1Cc1nc2ccccc2nc1SCC(=O)N1CCN(c2ccccc2)CC1	-6%	3.1%	0%	.	3%[46.1 µM]	.	.	.
O=C(c1ccc(C(F)(F)F)cc1)C1CCCN(C(=O)c2cnccn2)C1 (stereo not drawn)	.	.	-8%	0%	3%	?	0%	-1%
O=C(Cc1ccccc1)NCc1ccc(F)cc1	13%	5.4%	51%[activator]	-3%	.	.	-3%	-4%
CC(C)NC(=O)NC(=O)CSc1nnc(-c2c[nH]c3ccccc23)o1	.	.	0%	23%	?	21%[46.1 µM]	15%	-6%
CC(C)N1CCNCC1	.	.	6%	1%	.	.	-3%	7%
COC(=O)c1nnn(-c2nc(N(C)C)nc(N(C)C)n2)c1C	.	.	-8%	1%	?	-3%[46.1 µM]	6%	.
CCC(C)NC(=O)CCC(=O)N1Cc2ccccc2Oc2ncccc21 (stereo not drawn)	9%	1.4%	-6%	.	3%[46.1 µM]	.	.	.
COc1ccc2c(-c3cc4ccc(OCc5ccc(F)cc5)cc4oc3=O)cc(=O)oc2c1	10µM*	-7.1%	-14%	-6%	?	?	5%	13%

Another view of part of the listing above:
Each structure is followed by: Cruzain noTriton	Cruzain inh Det	2A StopGo	SARS PLP yeast	LASV entry inh	MARV entry inh	RE007 growth inh	NS1 function inh
> COc1ccccc1Cc1nc2ccccc2nc1SCC(=O)N1CCN(c2ccccc2)CC1
 : -6%	3.1%	0%	.	3%[46.1 µM]	.	.	.
> O=C(c1ccc(C(F)(F)F)cc1)C1CCCN(C(=O)c2cnccn2)C1 (stereo not drawn)
 : .	.	-8%	0%	3%	?	0%	-1%

Of the compounds above, 2 contain an aryl thioether with sulfur outside any ring.
SMILES	Cruzain noTriton	Cruzain inh Det	2A StopGo	SARS PLP yeast	LASV entry inh	MARV entry inh	RE007 growth inh	NS1 function inh
COc1ccccc1Cc1nc2ccccc2nc1SCC(=O)N1CCN(c2ccccc2)CC1	-6%	3.1%	0%	.	3%[46.1 µM]	.	.	.
CC(C)NC(=O)NC(=O)CSc1nnc(-c2c[nH]c3ccccc23)o1	.	.	0%	23%	?	21%[46.1 µM]	15%	-6%

Other compounds.
SMILES	Cruzain noTriton	Cruzain inh Det	2A StopGo	SARS PLP yeast	LASV entry inh	MARV entry inh	RE007 growth inh	NS1 function inh
O=C(CCl)N1N=C(c2ccco2)CC1c1ccco1 (stereo not drawn)	.	.	-24%	7%	?	?	5%	3%
COCCNc1nc(C)cc(-c2cc(-c3ccc(Cl)cc3)on2)n1	.	.	-2%	-7%	.	.	6%	-2%
Cn1c(C(=O)NCc2ccccn2)cc2c(=O)n(C)c3ccccc3c21	3%	-1.5%	-23%	12%	.	.	-7%	-12%
O=S(=O)(Nc1cccc2nsnc12)c1ccccc1	6%	5.3%	.	-8%	0%	7%	14%	-3%
Nc1nnnn1/N=C/c1cccc(Br)c1	.	.	-9%	-7%	.	.	-1%	-20%
N#Cc1ccc(C(=O)NC23CC4CC(CC(C4)C2)C3)cc1	.	.	-15%	-2%	-10%	0%	1%	1%
COCCNC(=S)Nc1cc(OC)c(NC(=O)c2ccco2)cc1OC	.	.	-15%	-2%	6%	0%	6%	2%
COc1ccc(S(=O)(=O)N2CCN(Cc3ccc4c(c3)OCO4)CC2)c2ccccc12	-13%	-4.3%	-1%	-5%	.	.	2%	-50%
Oc1c(C=Nc2ccccc2)sc(=S)n1Cc1ccccc1	.	.	30%[activator]	-1%	?	-8%[46.1 µM]	-19%	-2%
Cc1ccc(-n2cc(-c3ccccc3)c3c(=O)[nH]cnc32)cc1	0%	-6.9%	7%	-10%	15µM*	-28%	55%	-36%
O=C(COc1ccc2c3c(c(=O)oc2c1)CCCC3)NCCN1CCOCC1	.	.	-5%	-3%	2%[46.1 µM]	3%[46.1 µM]	1%	3%
CCc1ccc(OCC(=O)N(Cc2ccc(C)cc2)Cc2ccco2)cc1	-10%	-12%	-23%	.	-2%[46.1 µM]	-2%[46.1 µM]	.	.
CN(Cc1ccccc1)S(=O)(=O)c1ccc(NC(=S)NC(=O)C(C)(C)C)cc1	0%	-9.1%	-5%	-6%	-8%	5%	-2%	10%
C=CCNc1nc(-c2ccc(Cl)cc2)cs1	-7%	-6.1%	13%	3%	11%	-9%	?	-21%
CSc1nc(C)cc(SCC(=O)N/N=C/c2ccccc2)n1	-6%	-4.4%	-15%	-5%	-4%	?	?	5%
Fc1cccc(Cc2noc(CN3CCOCC3)n2)c1	.	.	-2%	-1%	.	.	5%	-3%
COC(=O)Cc1ccc(NC(=S)N2CCCC(CO)C2)cc1 (stereo not drawn)	-4%	-0.5%	-32%	3%	?	?	-8%	-1%
CC(NC(=O)CN(C)Cc1nc2ccccc2c(=O)[nH]1)c1ccccc1 (stereo not drawn)	8%	3.9%	-5%	-2%	-19%	3%	4%	-7%
COc1ccccc1C(=O)NNC(=O)C(=O)NC1CCCCC1	.	.	0%	0%	3%[46.1 µM]	7%[46.1 µM]	-18%	-9%
COCc1cc(C)nc(SCC(=O)Nc2cc(C(F)(F)F)ccc2N2CCOCC2)c1C#N	.	.	-9%	3%	?	?	4%	-9%
Cc1ccc(/C(N)=N/OC(=O)Oc2ccccc2)cc1	-2%	-6.1%	1%	-6%	12%	5%	2%	-14%
O=C(C(Cc1ccccc1)n1cccc1)N1CCCCC1 (stereo not drawn)	9%	0.9%	-2%	1%	.	.	9%	3%
CCOC(=O)C1CCCN(S(=O)(=O)c2cc3c(cc2C)NC(=O)CO3)C1 (stereo not drawn)	-2%	-10%	50%[activator]	.	16%[46.1 µM]	.	.	.
N#Cc1c(C(F)(F)F)cc(-c2cccs2)nc1N1CCCCC1	.	.	0%	1%	-2%	19%	4%	-4%
CCOC(=O)C(NC(=O)CC(C)C)(Nc1sc2c(c1C(N)=O)CCCC2)C(F)(F)F (stereo not drawn)	1%	-0.7%	-7%	12%	-6%	-4%	-20%	7%
CCCCSc1nc(CCC)cc(=O)[nH]1	-11%	-4.2%	-3%	-19%	-2%	-13%	9%	-12%
CCCCOC(=O)/C(C#N)=C/c1ccc(-c2cccc(C(F)(F)F)c2)o1	-2%	-5.2%	-9%	.	?	.	.	.
COc1ccc(OC)c(CN2CCN(c3ccc(S(=O)(=O)N4CCCC4)cn3)CC2)c1	.	.	0%	5%	?	?	0%	.
Cc1nc2ncnn2c(C)c1CCC(=O)N1CCc2ccccc21	8%	1.3%	-13%	-1%	0%	8%	22%	3%
COc1cccc(C2C(C(=O)OC(C)C)=C(C)N=c3s/c(=C\c4ccc(C(=O)O)cc4)c(=O)n32)c1 (stereo not drawn)	.	.	0%	1%	13%	?	34%	13%
CC1CCN(c2ccc([N+](=O)[O-])cc2C(=O)NCC2CCCO2)CC1 (stereo not drawn)	.	.	-22%	-2%	-1%	-3%	-20%	-1%
CC(C)(CNC(=O)Cc1ccc(Br)cc1)N1CCOCC1	.	.	7%	0%	.	12%[46.1 µM]	20%	2%
COCCCNC(=O)Cc1coc2ccc3ccccc3c12	.	.	1%	2%	-15%	-2%	-18%	.
NC(=O)c1c(NC(=O)c2cccnc2)sc2c1CCCCC2	.	.	58%[activator]	-4%	.	.	1%	-2%
CC(=O)OC[C@]12CCC(C)=C[C@H]1O[C@@H]1[C@H](O)[C@@H](OC(C)=O)[C@@]2(C)[C@]12CO2	.	.	?	-10%	.	.	3.2µM*	-103%
COC(=O)CSCc1nc2ccccc2[nH]c1=O	-2%	-1.2%	25%	0%	?	27%	-20%	-34%
Cc1ccc(S(=O)(=O)CC(O)COc2ccc(F)cc2Cl)cc1 (stereo not drawn)	.	.	0%	-2%	11%	-20%[46.1 µM]	2%	-1%
O=C(O)c1cccc(S(=O)(=O)Nc2ccc(Cc3ccncc3)cc2)c1	.	.	7%	7%	0%	-6%	0%	.
O=C(O)CSC(C(=O)Nc1ccc(Br)cc1)c1ccc(Cl)cc1 (stereo not drawn)	.	.	-4%	-1%	-10%[46.1 µM]	-9%[46.1 µM]	-1%	-1%
